# Screening results (PubChem)
# Mtb MenB inh – blocks the Mycobacterium tuberculosis MenB enzyme. AID 540299. P9WNP5. actives 0.43% (n = 100,000). MenB enzyme assay, absorbance read-out; some hits fall short of the stated cut. inhibition, %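 (about 12 µg/mL by stock and volumes)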;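 active = mean of two replicates above 30%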;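 note: 0% = no compound and 100% = wells with inactive enzyme; the first replicate is given; strong numbers were not always called active; inactives centre near -10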
# Mtb MbtI inh – inhibitors of Mycobacterium tuberculosis siderophore enzyme MbtI. actives 0.89% (n = 100,000). inhibition, %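 (about 17 µg/mL by stock and volumes)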. P9WFX0. purified MbtI enzyme, fluorescence intensity read-out;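 active = above 50% in both replicates, above 80% if mildly self-fluorescent; inactive = the rest, strongly fluorescent compounds included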;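 note: 0% = mean of negative and 100% = mean of positive controls; one replicate is shown; some compounds called inactive have numbers as strong as hits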
# Target sequence (P9WFX0 whole entry, looked up): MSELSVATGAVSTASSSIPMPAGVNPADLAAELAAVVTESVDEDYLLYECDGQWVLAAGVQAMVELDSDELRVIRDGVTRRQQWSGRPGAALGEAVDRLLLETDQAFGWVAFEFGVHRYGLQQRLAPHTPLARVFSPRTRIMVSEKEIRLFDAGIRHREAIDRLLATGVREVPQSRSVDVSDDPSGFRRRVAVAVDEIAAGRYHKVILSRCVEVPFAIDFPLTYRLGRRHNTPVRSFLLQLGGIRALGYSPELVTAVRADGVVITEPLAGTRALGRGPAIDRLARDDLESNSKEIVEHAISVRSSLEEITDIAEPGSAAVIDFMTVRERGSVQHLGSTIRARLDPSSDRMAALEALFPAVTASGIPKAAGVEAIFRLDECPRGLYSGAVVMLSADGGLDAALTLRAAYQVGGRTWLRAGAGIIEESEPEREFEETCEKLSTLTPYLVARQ
# Polio RdRp inh – poliovirus RNA polymerase inhibition | poliovirus polymerase elongation, fluorescence polarization; stronger effect = lower value | P03300 | actives 0.66% (n = 150,000) | % elongation, % (compound at 16.7 µg/mL); in the data active = % elongation below about 90%; note: some results filed as inactive read as strong as hits
# Target sequence (P03300 1749-2209 limits assumed): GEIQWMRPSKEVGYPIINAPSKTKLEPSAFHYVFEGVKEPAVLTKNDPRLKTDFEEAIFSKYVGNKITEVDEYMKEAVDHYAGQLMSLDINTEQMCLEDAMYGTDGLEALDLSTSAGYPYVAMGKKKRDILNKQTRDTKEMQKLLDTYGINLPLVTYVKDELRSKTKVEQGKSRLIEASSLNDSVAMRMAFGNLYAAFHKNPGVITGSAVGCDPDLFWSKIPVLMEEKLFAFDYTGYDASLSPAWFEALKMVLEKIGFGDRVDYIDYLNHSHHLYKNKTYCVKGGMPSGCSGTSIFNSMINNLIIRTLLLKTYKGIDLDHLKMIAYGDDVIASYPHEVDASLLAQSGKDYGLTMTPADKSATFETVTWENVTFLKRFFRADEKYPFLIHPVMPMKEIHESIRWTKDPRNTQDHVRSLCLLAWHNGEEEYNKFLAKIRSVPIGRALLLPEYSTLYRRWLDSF
# Polio RdRp inh intensity – further read-out of Polio RdRp inh, marked with its call; % elongation; measured here: total intensity read-out; formula for this scale not given here;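 total fluorescence in place of polarization; lower means less elongation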
# An asterisk follows results filed as active; x = no result given; & = joins results of further samples.
1	CC(C(=O)NCc1ccc(F)cc1)N1Cc2ccccc2C1=O (stereo not given)
2	Cc1ccc(/C=N/N2CCOCC2)s1
3	O=C(NC1CCCC1)c1ccc(CS(=O)(=O)c2cccc(C(F)(F)F)c2)o1
4	CCN(C(=O)c1ccc(S(=O)(=O)N2CCC(C)CC2)cc1)C1CCS(=O)(=O)C1 (stereo not given)
5	CCOC(=O)Cc1ccc(NC(=O)N2CCOc3ccccc32)cc1
6	Cc1ccc(S(=O)(=O)N(CC(=O)Nc2ccc3c(c2)OCCO3)C2CCCCC2)cc1
7	O=C(O)/C=C/c1cc(C(F)(F)F)ccc1Cl
8	CCOc1ccc(NC(c2ccccn2)c2oc(CO)cc(=O)c2O)cc1 (stereo not given)
Compound	1	2	3	4	5	6	7	8
Mtb MenB inh	0	4	-17	-22	-11	-13	5	-3
Mtb MbtI inh	-13	34	7	-10	-7	-6	-3	21
Polio RdRp inh	100	104	103	x	102	104	111	100
Polio RdRp inh intensity	101	110	103	x	102	101	113	104

9	CC1CCCN(C(=O)COC(=O)c2ccc(-c3cccc(C(F)(F)F)c3)o2)C1 (stereo not given)
10	CC(=O)NCc1ccc(S(N)(=O)=O)cc1
11	CC(C)CNC(=O)c1ccccc1N
12	CCCCCCc1cc2cc(C#N)c(=O)oc2cc1O
13	c1csc(C2=NCCC2)c1
14	Cc1cccc(N(C)S(=O)(=O)c2ccc3c(c2)n(C)c(=O)c(=O)n3C)c1
15	COC(=O)c1ccccc1NC(=O)NCc1ccccn1
16	CCOc1ccc(CCNC(=O)C2CCCN(S(C)(=O)=O)C2)cc1OCC (stereo not given)
Compound	9	10	11	12	13	14	15	16
Mtb MenB inh	1	8	11	-17	-6	-14	-8	-7
Mtb MbtI inh	5	12	125	-30	-23	32	33	-8
Polio RdRp inh	103	102	102	81	96	101	105	100
Polio RdRp inh intensity	97	104	99	175	100	100	103	104

17	CC(C)CC1NC(C(=O)O)Cc2c1[nH]c1ccccc21 (stereo not given)
18	c1ccc(-c2nc(N3CCCCC3)c3ccccc3n2)cc1
19	Cc1cc(-c2csc(N)n2)c(C)n1Cc1ccco1
20	COc1ccc(NC(=O)COC(=O)c2ccc(N3CCCC3=O)cc2)cc1
21	O=C(NCc1ccccc1)c1cc(=O)[nH]c2ccccc12
22	CCOc1ccc2nc(NCCNC(=O)C3CCCCC3)c(C#N)cc2c1
23	O=C1/C(=C/c2cccs2)N=C(c2cccs2)N1Nc1ccccc1
24	Cc1nc2sccn2c(=O)c1S(=O)(=O)NC1CC1
Compound	17	18	19	20	21	22	23	24
Mtb MenB inh	-10	33*	-40	2	-2	-24	-107	-17
Mtb MbtI inh	28	55	3	1	-4	-8	11	4
Polio RdRp inh	99	101	100	99	98	105	96	102
Polio RdRp inh intensity	101	102	96	101	105	101	105	104

# Along the list, from the results shown.
# Mtb MbtI inh, entries 17–24 → 28, 55, 3, 1, -4, -8, 11, 4
# Mtb MenB inh, entries 17–24 → -10, 33*, -40, 2, -2, -24, -107, -17

# New compounds follow:
25	CCc1cccc(CC)c1N(COC)C(=O)Cn1nnc2ccccc21
26	O=C(Cn1ncc2c1-c1ccccc1OC2)N1CCCCC1
27	O=C(Nc1ccccc1)N1CCCC1
28	CCn1c(NC(=O)Nc2ccccc2OC)nc2ccccc21
29	Cc1ccc(CNC(=O)CSCc2c(C)noc2C)cc1
30	CC(=O)Oc1cc2c(C(=O)NCC3CCCO3)c(C)oc2c2ccccc12 (stereo not given)
31	O=C(/C=C/c1ccccc1)Nc1nnc(-c2ccc(Br)cc2)o1
32	C[n+]1ccn(C/C(N)=N/O)c1
Compound	25	26	27	28	29	30	31	32
Mtb MenB inh	-15	-5	-49	-1	-4	2	-7	17
Mtb MbtI inh	16	-1	-9	3	10	1	-5	5
Polio RdRp inh	100	101	101	108	101	103	103	104
Polio RdRp inh intensity	109	101	102	113	100	104	101	102

33	COc1ccc(C(C)=NNC(=O)C(C)Nc2ccc(C)cc2)cc1 (stereo not given)
34	N#Cc1c(NC(=O)CO/N=C/c2cccs2)sc2c1CCCCC2
35	CCC(=O)N=C1SC2CS(=O)(=O)CC2N1CCc1ccccc1 (stereo not given)
36	Cc1nc2ccc(-n3ccc(=O)cc3)cc2s1
37	CCn1c2ccccc2c2cc(C3C(C#N)=C(C)NC(C)=C3C#N)ccc21
38	Nc1ccccc1Nc1c(N)c(=O)oc2ccccc12
39	NC(=O)C1CCN(C(=O)/C=C/c2cccc(Br)c2)CC1
40	Cc1cc(C)c(NC(=O)COC(=O)c2ccco2)c(C)c1
Compound	33	34	35	36	37	38	39	40
Mtb MenB inh	-18	-1	-33	x	x	-14	x	x
Mtb MbtI inh	-5	0	-13	8	4	-6	-5	-11
Polio RdRp inh	105	103	105	102	103	100	102	101
Polio RdRp inh intensity	101	108	101	103	97	101	102	104

41	Cn1cnnc1Sc1cc(C#N)c(C#N)cc1Sc1nncn1C
42	CCOC(=O)N1CCC(NC(=O)c2cnn3c(C(F)(F)F)cc(-c4ccccc4)nc23)CC1
43	COC1CCCCC1NC1CCCC1 (stereo not given)
44	O=C(CBr)c1cc(Cl)ccc1Cl
45	CC(=O)n1c(C=Nc2ccccc2)c(O)c2ccccc21
46	NS(=O)(=O)c1ccc(NC(=O)COC(=O)CN2C(=O)C3CC=CCC3C2=O)cc1 (stereo not given)
47	COc1ccc(CNC(=O)CCNc2ccc(C)cc2)cc1
48	Cc1ccc(-n2ncc(N(C)N3CC(C)(C)C3=O)c(Cl)c2=O)cc1
Compound	41	42	43	44	45	46	47	48
Mtb MenB inh	-7	3	-3	x	-79	-13	-30	-4
Mtb MbtI inh	5	109	-14	9	18	-13	-7	-6
Polio RdRp inh	110	101	104	99	109	103	106	104
Polio RdRp inh intensity	102	104	102	101	113	111	107	114

49	N#Cc1c(OCC(F)(F)F)ccc(SCc2ccccc2)c1OCC(F)(F)F
50	O=C1CC2(CCCC2)C(=O)N1CN1CCN(S(=O)(=O)c2ccc(F)cc2)CC1
51	O=C(COC(=O)c1ccccc1Br)c1cc2ccccc2o1
52	O=C(NCCc1ccccc1)c1cc(=O)c2ccccc2o1
53	CC1CN(S(=O)(=O)c2cccc(C(=O)N(C)C3CCCCC3)c2)CC(C)O1 (stereo not given)
54	COc1ccc(NC(=O)C2C3C=CC(C3)C2C(=O)NCc2ccco2)cc1 (stereo not given)
55	O=C(OCc1cc(Cl)cc2c1OCOC2)c1ccc2c(=O)n3c(nc2c1)CCCCC3
56	O=C(CC(NCc1ccco1)C(=O)O)Nc1cccc(C(F)(F)F)c1 (stereo not given)
Compound	49	50	51	52	53	54	55	56
Mtb MenB inh	-12	-7	-31	x	-13	-2	-11	1
Mtb MbtI inh	-1	19	-9	-12	-10	-5	62	2
Polio RdRp inh	103	98	123	103	x	101	100	98
Polio RdRp inh intensity	108	92	124	106	x	102	103	102

57	COc1ccc(S(=O)(=O)CCC(=O)O)cc1
58	CCOc1ccc(CC(=O)NC2CC(C)(C)N(C)C(C)(C)C2)cc1OCC
59	CCN(Cc1ccccc1)C(=O)c1sc2nc(C)cc(C)c2c1N
60	CC(OC(=O)C1CCN(C(=O)c2ccc(Cl)cc2)CC1)C(=O)NC1CC1 (stereo not given)
61	CCN(CC)Cn1c(O)c(N=NC(=O)Cc2ccc(OC)cc2)c2cc(Br)ccc21
62	CC(=O)Nc1ccc(C(F)(F)F)cc1N
63	O=C(CNc1ccc(F)c(Cl)c1)Nc1ccc2c(c1)OCCO2
64	CCC1CCCCN1C(=O)CSc1nnc2c3ccccc3n(CC(=O)O)c2n1 (stereo not given)
Compound	57	58	59	60	61	62	63	64
Mtb MenB inh	-4	-3	-18	-33	3	6	x	-6
Mtb MbtI inh	-31	x	x	-3	-2	-1	6	2
Polio RdRp inh	101	104	103	104	100	101	102	103
Polio RdRp inh intensity	102	100	108	103	100	100	96	106

65	O=C(Cn1nnc(-c2ccc(Cl)cc2)n1)NCC(F)(F)F
66	CCCCC1(C)N2CC3(C)CN1CC(C)(C2)C3=O (stereo not given)
67	c1csc(CNc2ccc3c(c2)oc2ccccc23)c1
68	CC(=O)c1c(C)[nH]n(-c2nc3ccccc3s2)c1=O
69	O=C(NCc1cccc2ccccc12)c1ccc2c3c(cccc13)CC2
70	Cc1cc(C(=O)NCC2CCCO2)on1 (stereo not given)
71	CC(C(=O)NCc1cccs1)n1ncn2cccc2c1=O (stereo not given)
72	CS(=O)(=N/C=C(\C#N)S(=O)(=O)c1ccc(C(F)(F)F)cn1)c1ccc(Cl)cc1 (stereo not given)
Compound	65	66	67	68	69	70	71	72
Mtb MenB inh	-13	-17	-40	-39	7	3	13	-20
Mtb MbtI inh	-62	-3	-248	43	x	-3	-4	1
Polio RdRp inh	104	104	102	101	102	98	104	103
Polio RdRp inh intensity	108	102	105	104	108	103	106	110

# Copied from above: compounds 69–70
69	O=C(NCc1cccc2ccccc12)c1ccc2c3c(cccc13)CC2
70	Cc1cc(C(=O)NCC2CCCO2)on1 (stereo not given)
Compound	69	70
Mtb MenB inh	7	3
Mtb MbtI inh	x	-3
Polio RdRp inh	102	98
Polio RdRp inh intensity	108	103

# Other results:
73	CN1CCC(N(C)C(=O)c2cc(-c3ccc(F)cc3)nc3ccccc23)CC1
74	O=C(Cc1c(F)cccc1Cl)n1nnc2ccccc21
75	COc1ccc(N2Cc3ccccc3C2=O)cc1
76	CC1CCCCN1C(=O)c1cc2nc(-c3ccc(Cl)cc3)cc(C(F)(F)F)n2n1 (stereo not given)
77	COc1cccc2cc(-c3cn4ccccc4n3)c(=O)oc12
78	NCCCC[C@H](N[C@@H](CCc1ccccc1)C(=O)O)C(=O)N1CCC[C@H]1C(=O)O
79	O=C(NCc1ccco1)c1cccc(-c2nnc(-c3ccccc3)o2)c1
80	COc1ccc(-c2cc3nc(C)c(CCC(=O)N4CCCC4)c(C)n3n2)c(OC)c1
Compound	73	74	75	76	77	78	79	80
Mtb MenB inh	x	-7	-3	-19	-9	-9&-1	-31	-16
Mtb MbtI inh	-1	-9	4	5	-20	-1&-14	-57	-3
Polio RdRp inh	101	102	101	104	101	100&98	102	101
Polio RdRp inh intensity	105	104	102	109	101	98&102	101	103

# Single values from above.
# Mtb MenB inh, compound 75 = -3
# Polio RdRp inh, compound 73 = 101
# Mtb MenB inh, compound 79 = -31
# Mtb MbtI inh, compound 76 = 5

# Random excerpt: 5 entries already listed.
76	CC1CCCCN1C(=O)c1cc2nc(-c3ccc(Cl)cc3)cc(C(F)(F)F)n2n1 (stereo not given)
79	O=C(NCc1ccco1)c1cccc(-c2nnc(-c3ccccc3)o2)c1
75	COc1ccc(N2Cc3ccccc3C2=O)cc1
80	COc1ccc(-c2cc3nc(C)c(CCC(=O)N4CCCC4)c(C)n3n2)c(OC)c1
78	NCCCC[C@H](N[C@@H](CCc1ccccc1)C(=O)O)C(=O)N1CCC[C@H]1C(=O)O
Compound	76	79	75	80	78
Mtb MenB inh	-19	-31	-3	-16	-9&-1
Mtb MbtI inh	5	-57	4	-3	-1&-14
Polio RdRp inh	104	102	101	101	100&98
Polio RdRp inh intensity	109	101	102	103	98&102

# Next section.
81	CCN1/C(=C(\C#N)c2nc(C#N)c(C#N)nc2N2CCOCC2)Nc2ccccc21
82	COc1ccc(CCn2c(=S)[nH]c3ccc(Cl)cc3c2=O)cc1OC
83	CC(C)COc1ccc(C(=O)N2N=C(C(F)F)CC2(O)C(F)F)cc1 (stereo not given)
84	CN(C)/C=C1\SC(=S)N(c2ccc(Br)cc2)C1=O
85	CCn1c(SCCc2ccccc2)nc2cc(S(=O)(=O)N3CCOCC3)ccc21
86	CCOC(=O)c1oc2c(c1C)/C(=N/O)CCC2
87	O=C(ON1C(=O)CCC1=O)c1ccc(Cl)cc1Cl
88	Cc1c(-c2ccnn2C(=O)Nc2ccccc2)sc2ccccc12
Compound	81	82	83	84	85	86	87	88
Mtb MenB inh	-11	4	-19	-44	-10	0	-38	-12
Mtb MbtI inh	-13	-5	-5	14	3	-5	1	4
Polio RdRp inh	100	101	106	70	109	100	103	104
Polio RdRp inh intensity	112	106	102	192	114	102	100	103

89	Cc1ccc(NC(=O)c2ccc3nc[nH]c3c2)c(O)c1
90	O=C(Nc1cccc(F)c1)c1cccc2c1C(=O)N(Cc1cccnc1)C2
91	O=c1c(Cl)c(NCc2ccco2)cnn1-c1ccccc1
92	O=C(O)c1ccc(S(=O)(=O)N(Cc2ccco2)CC2CCCO2)cc1 (stereo not given)
93	CC(C)[C@@H](C(=O)OCc1cc(=O)n2ccsc2n1)N1C(=O)c2ccccc2C1=O
94	O=C(O)c1ccccc1C(=O)N1CCc2ccccc21
95	O=C(CCc1ccc(S(=O)(=O)N2CCOCC2)cc1)NCC(F)(F)F
Compound	89	90	91	92	93	94	95
Mtb MenB inh	-9	-11	-14	-12	-34	0	-19
Mtb MbtI inh	-6	8	x	-5	-8	x	-12
Polio RdRp inh	108	100	106	100	98	107	94
Polio RdRp inh intensity	110	107	106	103	87	105	96
